# Source: PubChem BioAssay (PCMD)
# Calb biofilm kill: clotrimazole potentiators killing C. albicans biofilm, primary screen, 4-compound mixtures. C. albicans biofilm persisters + clotrimazole, fluorescence viability; primary screen in compound mixtures of four per well. inhibition, % at 7.6 µM. 120,000 compounds, 0.02% hits. AID 1242, 2008;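 active = inhibition above 30.3% in the primary screen of four-compound pools, then above 30% when the compound was retested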;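 also: compounds exposed to preformed 24 h biofilms for 48 h; the number belongs to the whole pool; some results filed as inactive read as strong as hits; inactives centre near 12; 0% = biofilm with clotrimazole alone and 100% = kill control; retested singly at about 60 µM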
#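 Test system: C. albicans biofilms. Buffer or medium: RPMI/MOPS medium, pH 7.0. Timing: 48 h compound exposure at 37 °C. Technique: Alamar Blue fluorescence. Evaluation: percent inhibition of biofilm viability.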
# Starred values were filed as active, the others as inactive.
SMILES,Calb biofilm kill
COc1ccccc1N(CC(=O)NC1CCCC1)C(=O)c1oc(C(C)(C)C)cc1C,16.4
CCOc1cccc(=O)c2c(C)n(CC(=O)c3ccccc3)c(C)c12,4.4
Cc1[nH]nc(SCC(=O)N2CCCC2)c1[N+](=O)[O-],10.7
CCC(=O)Nc1cc2[nH]c(=O)cc(C)c2cc1C,-3.7
CCCc1nc2sc3c(c2c(=O)n1NC(=O)c1ccco1)CC(C)(C)OC3,8.0
Nc1cccc(C(=O)N/N=C/c2ccsc2)c1,3.3
COc1cc([N+](=O)[O-])cc2cc(C(=O)N3CCN=C3c3ccccc3)c(=O)oc12,8.3
O=C(OCC(=O)N1CCc2ccccc21)c1cncc(Br)c1,15.2
N#Cc1ccsc1NC(=O)COC(=O)c1ccc(NC(N)=O)cc1,13.5
COc1cc(NC(=S)NCc2cccnc2)cc(OC)c1OC,0.0
Fc1ccc(C2CCCN2Cc2nc(CC3CC3)no2)cc1 (centres undefined),15.8
O=C(NC(=S)Nc1nc2c(ccc3ccccc32)s1)c1cccs1,14.1
Cc1cc(C(=O)NCCC(C)C)c2ccccc2n1,19.8
O=C(CSc1c(Cl)cccc1Cl)NC1CCCc2ccccc21 (centres undefined),-2.4
CO/N=C(\CCC(=O)O)c1cccs1,20.4
O=C(c1cc2ccccc2oc1=O)N(Cc1ccccc1)Cc1ccc2c(c1)OCO2,8.8
COC(=O)Nc1nc(Sc2ncc(C(F)(F)F)cc2Cl)n[nH]1,10.1
O=C(CCNc1n[nH]c(=O)[nH]c1=O)N/N=C/c1ccccc1Br,5.2
CC(=O)N1CCN(C(=S)NCCc2ccccc2)CC1,15.3
O=C(COC(=O)CCS(=O)(=O)c1ccc(Cl)cc1)NCCc1ccc(Cl)cc1Cl,5.4
CO/N=C(\C(=O)O)c1csc(NN=C(C)C)n1,27.0
O=C(/C=C1\SC(=O)N(CC(=O)Nc2ccc(F)cc2)C1=O)Nc1ccc(Cl)cc1,13.2
O=C(O)c1cc2cc(F)ccc2[nH]1,7.4
COc1ccc(C(=O)CSc2nnc3ccc(-c4ccccn4)nn23)cc1,1.3
O=C(N/N=C/c1c[nH]c2ccccc12)c1cc(-c2cccc3ccccc23)n[nH]1,10.4
CC(C)(C)c1nnc(N/N=C/c2cc(Br)ccc2O)n(N)c1=O,18.1
Cn1c(C(=O)N2CCCC(C(=O)c3ccc(C(F)(F)F)cc3)C2)cc(=O)n(C)c1=O (centres undefined),8.0
COc1ccc(N(C(=O)CNC(=O)c2cccs2)C(C(=O)NCC2CCCO2)c2ccccc2)cc1OC (centres undefined),13.9
COc1cc(CNC(=O)c2nc(Cn3nc(C)c(Br)c3C)no2)cc(OC)c1,7.1
COCc1c(C(=O)Nc2ccc(Cl)cc2F)oc2ccccc12,9.8
CSCCC(NC(=O)c1cccc([N+](=O)[O-])c1)c1nc2ccccc2[nH]1 (centres undefined),13.6
c1ccc(CCNc2ncnc3ccccc23)cc1,13.4
O=C(CN1CCN(c2ccccc2)CC1)Nc1cccc([N+](=O)[O-])c1,0.2
CC1CCc2nc(/C(C#N)=C/c3ccncc3)sc2C1 (centres undefined),-6.9
CS(=O)(=O)c1ccc(C(=O)Nc2ccccc2N2CCOCC2)c(Cl)c1,2.0
ClC1(Cl)CC1Cn1cnc2ccccc21 (centres undefined),2.5
CCc1ccc(NC(=O)C(NS(=O)(=O)c2cccc3nsnc23)c2ccccc2)cc1 (centres undefined),9.3
Oc1ccccc1CNc1cnc2ccccc2c1,8.5
O=C1CCC/C(=N\NC(=O)c2ccc(COc3ccccc3-c3ccccc3)cc2)C1,11.9
CCc1nnc(NC(=O)CCc2c[nH]c3ccccc23)s1,7.8
COc1ccc(CCNC(=O)CCC(=O)Nc2ccc3nc(N4CCN(C)CC4)cc(C)c3c2)cc1OC,15.1
CCC(CC)C(=O)N1CCN(Cc2nc3ccccc3c(=O)[nH]2)CC1,7.8
N#Cc1nccnc1N1CCN(C(=O)Nc2ccccc2)CC1,23.6
COc1cc(NC(=O)C2CC2)c(OC)cc1NC(=O)CCC(=O)NC1CCN(Cc2ccccc2)CC1,-3.0
CC(C)CN1C(=O)/C(=C/c2ccco2)NC1=S,8.0
CCOc1cc(NC(=S)N2CCC(C(N)=O)CC2)c(C(=O)OC)cc1OCC,14.1
CC(=O)CSc1cc(C)nc2c(-c3ccccc3)c(C)nn12,16.1
CC(=O)c1c(N2CCN(C)CC2)nc(=S)n(Cc2ccccc2)c1C,9.2
COC(=O)[C@H](C)NC(=O)NCc1ccccc1,18.5
Cc1[nH]nc(SCC(=O)NCc2ccc(Cl)cc2)c1[N+](=O)[O-],10.5
CC(C)CCNC(=O)CN(Cc1ccco1)C(=O)c1snc(C(N)=O)c1N,9.2
COc1ccccc1NCC(O)COc1ccc(C(C)(C)C)cc1 (centres undefined),17.7
c1ccc(COc2ccccc2CNC2CCCC2)cc1,10.5
COC(=O)Cn1c(=NC(=O)c2ccc(OC)c(OC)c2)sc2cc(OC)ccc21,13.9
O=C(Cn1cccc(C(F)(F)F)c1=O)c1ccc(Cl)cc1,16.3
Cc1nn(C(C)C(=O)O)c(C)c1[N+](=O)[O-] (centres undefined),-4.9
CCC(=O)N(CCC(c1ccco1)C(C)C)Cc1ccccc1 (centres undefined),1.0
COC(=O)Nc1ccc(S(=O)(=O)N2CCCC(C(=O)N3CCCCCC3)C2)cc1 (centres undefined),13.7
O=C(O)c1ccccc1-c1nc2ccccc2[nH]1,8.5
COc1ccc(-c2ccc(CCC(=O)O)n2NC(N)=O)cc1,5.9

# Other records follow.
SMILES,Calb biofilm kill
CN(C)c1nc(NCc2ccccc2)nc(N/N=C/c2ccccc2F)n1,7.0
O=C(/C(C=Nc1ccc(Br)cc1)=C(/O)c1ccco1)C(F)(F)F,12.3
COc1cc2c(cc1OC)C(c1cccc([N+](=O)[O-])c1)N(C(=O)c1ccccc1C(=O)O)CC2 (centres undefined),21.2
O=[N+]([O-])c1ccc(N2CCCCC2)cc1SCCO,9.8
COc1ccc(/C=N/N2CCOCC2)cc1Cn1cc([N+](=O)[O-])cn1,15.9
Cc1ccnc(NS(=O)(=O)c2ccc(NC(=O)C3COc4ccccc4O3)cc2)n1 (centres undefined),12.4
C/C(=N\NC(=O)c1cc(-c2ccc(C)s2)[nH]n1)c1ccco1,11.9
COc1ccccc1CCc1nnc(CCC(=O)NCC(C)Oc2cccnc2)o1 (centres undefined),5.3
CCC(=O)N(Cc1cc(=O)[nH]c2ccccc12)c1ccccc1,10.7
CCCNC(=O)C12CCC(C)(C(=O)C1Br)C2(C)C (centres undefined),13.3
O=C(CCCSc1nc2ccccc2[nH]1)NCc1ccccc1F,0.6
O=C(Nc1ccc(C(=O)N2CCOCC2)cc1)c1cnn2c(C(F)F)cc(-c3ccccc3)nc12,31.4
CCOc1ccccc1C(=O)Nc1cccc(-c2ccc3nncn3n2)c1,17.7
CCN=C(NS(=O)(=O)c1ccc(Br)cc1)c1ccc(Cl)cc1,11.6
C/C(=N/N=C/c1ccc(N(C)C)cc1)c1ccccc1,-7.3
O=C(O)CCC(CNS(=O)(=O)c1ccccc1)C(F)(F)F (centres undefined),17.8
CC(=O)c1ccc(OCC(O)CN2CCN(CCN3C(=O)c4cccc5cccc(c45)C3=O)CC2)cc1 (centres undefined),8.1
NC(=O)CSc1nnc(COc2ccccc2)n1Cc1ccco1,0.3
CSCCC(NC(=O)c1cccc([N+](=O)[O-])c1)C(=O)O (centres undefined),19.1
CC(=O)Nc1ccc(SCC(=O)N(C)C2CCS(=O)(=O)C2)cc1 (centres undefined),17.3
COc1ccc2nc(NC(=O)CS(=O)(=O)Cc3ccccc3)sc2c1,15.0
Cc1cccc(-n2ncc3c(N4CCC5(CC4)OCCO5)ncnc32)c1,6.7
Clc1ccc(C2CSc3c4ncnc-4ncn32)cc1 (centres undefined),14.0
Cc1c(NC(=O)Cc2ccccc2)cccc1C(=O)NN1C(=O)c2ccccc2C1=O,8.4
CCc1c(C)nn(C(=O)/C(C#N)=C\N(C)C)c1C,16.1
O=C(Cc1ccccc1)Nc1cccc(C(=O)O)c1O,11.2
CN1CCCN(C(=O)/C=C/c2ccc(F)cc2)CC1,19.2
Cc1cc(C)c2sc(NNC(=O)c3ccc(S(=O)(=O)N4CCc5ccccc5C4)cc3)nc2c1,8.3
COc1cccc(OCC(O)CN2CCN(c3ncccn3)CC2)c1 (centres undefined),14.6
CCCCC1(C)OC(=O)C(=Cc2c[nH]c3ccccc23)C(=O)O1 (centres undefined),29.2

# Reformatted field by field: part of the list above
CCC(=O)N(Cc1cc(=O)[nH]c2ccccc12)c1ccccc1
  Calb biofilm kill: 10.7

CCCNC(=O)C12CCC(C)(C(=O)C1Br)C2(C)C (centres undefined)
  Calb biofilm kill: 13.3

O=C(CCCSc1nc2ccccc2[nH]1)NCc1ccccc1F
  Calb biofilm kill: 0.6

O=C(Nc1ccc(C(=O)N2CCOCC2)cc1)c1cnn2c(C(F)F)cc(-c3ccccc3)nc12
  Calb biofilm kill: 31.4

# Additional compounds.
SMILES,Calb biofilm kill
O=C(CSc1nc2ccc([N+](=O)[O-])cc2s1)c1ccc2ccccc2c1,14.4
C[N+]12CCC(CC1)C(OC(=O)C(O)(c1ccccc1)c1ccccc1)C2 (centres undefined),12.0
CCCCCCOc1ccc(C(=O)O)cc1C#N,-4.6
COC(=O)C1CCCCN1C(=O)CCc1nnc(CCc2c[nH]c3ccccc23)o1 (centres undefined),2.9
CCc1nc2ccccc2n1CC1CC1(Cl)Cl (centres undefined),20.0
Cc1ccc(C)c(N2CN(Cc3cccnc3)CNC2=S)c1,14.1
Cc1ccc(OCC(=O)N2c3ccccc3NC(=O)C2(C)C)c([N+](=O)[O-])n1,13.6
Cc1cccc(C(=O)NCC2CCCO2)c1 (centres undefined),4.6
COc1ccc(C(=O)Nc2nc(-c3ccc([N+](=O)[O-])cc3)c(-c3ccc(OC)cc3)s2)cc1,12.2
CCOC(=O)c1sc(/N=C/c2ccc(O)cc2O)cc1C,12.7
O=C(NNC(=O)c1cc(-c2ccco2)nc2ccccc12)c1ccccc1,12.7
O=C(/C=C/c1ccc(F)cc1)N1CCN(S(=O)(=O)/C=C/c2ccccc2)CC1,16.6
c1ccc(-n2nnc(-c3cccnc3)n2)cc1,10.3
CC1CN(C(=O)c2cc3cc([N+](=O)[O-])ccc3s2)CC(C)O1 (centres undefined),8.6
CC(=O)c1cccc(NC(=O)N2CCC(NC(=O)C34CC5CC(CC(C5)C3)C4)CC2)c1,15.0
CC(=O)N1N=C(c2ccc(C)o2)CC1c1ccc(F)cc1 (centres undefined),-3.9
Cc1ccc(OCC(=O)NNC(=O)CSc2ncnc3sc(C)c(C)c23)cc1,55.8
Cc1ccc(C)c(NC(=S)NCCCN2CCOCC2)c1,5.4
O=C(/C=C/c1ccco1)NC(=S)Nc1ccccc1O,10.9
C=CCn1c(CNC(=O)c2ccccc2F)nnc1SCC(=O)NC(C)c1ccccc1 (centres undefined),1.0
CS(=O)(=O)N1CCN(c2ccc(C(=O)N3CCOCC3)cc2[N+](=O)[O-])CC1,12.4
O=c1c2c(nc3n1CCCCC3)-c1ccccc1CC21CCCCC1,10.0
CS(=O)(=O)CCC(C(=O)OCc1ccc(Br)cc1)N1C(=O)c2ccccc2C1=O (centres undefined),16.6
C=CCN1C(=O)/C(=C\C=C2\N(C)c3ccccc3C2(C)C)SC1=S,11.0
COc1cc(CN2CC(C)CC(C)C2)cc([N+](=O)[O-])c1O (centres undefined),18.1
CC(C)c1nnc(SCC(=O)N2CCc3ccccc32)n1C,9.5
O=C(Cn1cc(/C=N/NC(=O)c2cccc3ccccc23)c2ccccc21)Nc1ccc(F)cc1,4.1
COc1cccc(CC2(CO)CCN(Cc3ccc(NC(C)=O)cc3)CC2)c1,25.8
O=C(c1nnsc1S(=O)c1ccc(Cl)cc1)N1CCOCC1 (centres undefined),-9.9
COc1cc(NC(=O)CSc2nc3cc(C)ccc3cc2C)c(C(=O)O)cc1OC,12.8

# No new results follow: entries from further up.
SMILES,Calb biofilm kill
COc1ccccc1CCc1nnc(CCC(=O)NCC(C)Oc2cccnc2)o1 (centres undefined),5.3
CCC(=O)N(Cc1cc(=O)[nH]c2ccccc12)c1ccccc1,10.7
CCCNC(=O)C12CCC(C)(C(=O)C1Br)C2(C)C (centres undefined),13.3

# (next part)
SMILES,Calb biofilm kill
COc1ccc(Cl)cc1NC(=O)CN1CCc2ccccc21,8.4
CC(Cc1ccccc1)C(=O)N(C)Cc1cccnc1 (centres undefined),5.7
O=c1[nH]c2cc3c(cc2cc1CN(CCO)S(=O)(=O)c1ccccc1)OCCO3,17.4
Cc1c(N=C2SCC(=O)N2/N=C/c2ccccc2)c(=O)n(-c2ccccc2)n1C,0.6
CC(C)(C)NC(=O)CCN(/N=C/c1ccc([N+](=O)[O-])o1)C1=NS(=O)(=O)c2ccccc21,7.6
CCOC(=O)c1nnsc1NC(=O)Nc1ccc(OC)cc1,6.2
O=C(CN1CCCC1)Nc1ccc(Cl)cc1C(F)(F)F,9.0

# An excerpt; rates above refer to the full screens.
